RE007 growth inh – less growth of the S. pombe RE007 Vpr strain. S. pombe RE007 Vpr strain, BacTiter-Glo ATP luminescence, 24 h; control for the full effect not named in the record. Potency, µM (highest dose often 92.2 µM), without a hit: at the top dose activity change, negative = less growth. 360,000 tested, 0.21% active. AID 651644; active = well fitted falling curve with a large enough effect; inconclusive = small, poorly fitted or top-dose-only effect; inactive = no such curve, though single readings can be large or run the other way;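 note: % is set by controls: 0 for no effect and ±100 for the full control effect; nearly all actives have a fitted effect of over 50% in size; the assay follows cell death caused by Vpr and the record does not say whether a fall means rescue or toxicity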
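Fission yeast RE007 carrying one integrated HIV-1 vpr copy, seeded at OD 0.01 in PMG+AL medium with 23 nL pinned compound. Grown 24 h at 30 degrees; viability read by BacTiter-Glo luminescence after 5 min.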
Marburg entry inh – Marburg virus entry inhibition. Marburg virus pseudotyped entry inhibition, cell reporter; control for the full effect not named in the record; about a third of the inactives were read at about 46 µM. 300,000 tested, 1.8% active. Potency, µM (titrated, usually from 37.8 µM), for inactives: top-dose activity change, negative = inhibition, most hits filed as inhibitors. AID 540276; active = well fitted inhibition curve with a large enough effect; inconclusive = small, poorly fitted or top-dose-only effect, or effect the other way; inactive = flat fitted curve, though single readings scatter; tested in HEK293 cells; about a fifth of its hits are not listed in these tables; note: % is set by controls: 0 for no effect and ±100 for the full control effect; luciferase read-out
Cruzain Triton – inhibitors of Trypanosoma cruzi cruzain with detergent; AID 1478; purified cruzain, Z-FR-AMC fluorescence, 0.01% Triton; P25779; 200,000 tested, 0.43% active; Potency, µM, for inactives: max response, negative = inhibition, actives largely listed as inhibitors; active = well fitted curve in the direction sought with a large enough effect; inconclusive = small, poorly fitted or top-dose-only effect, or another doubt; inactive = no such curve, though single readings can be large; an effect the other way counts as inactive or inconclusive;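 note: plate controls were neutral wells for no effect and buffer without enzyme for full effect; nearly all actives have a fitted effect of over 40% in size; top concentration of the series not given in the record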
Target sequence (P25779 123-467 limits assumed): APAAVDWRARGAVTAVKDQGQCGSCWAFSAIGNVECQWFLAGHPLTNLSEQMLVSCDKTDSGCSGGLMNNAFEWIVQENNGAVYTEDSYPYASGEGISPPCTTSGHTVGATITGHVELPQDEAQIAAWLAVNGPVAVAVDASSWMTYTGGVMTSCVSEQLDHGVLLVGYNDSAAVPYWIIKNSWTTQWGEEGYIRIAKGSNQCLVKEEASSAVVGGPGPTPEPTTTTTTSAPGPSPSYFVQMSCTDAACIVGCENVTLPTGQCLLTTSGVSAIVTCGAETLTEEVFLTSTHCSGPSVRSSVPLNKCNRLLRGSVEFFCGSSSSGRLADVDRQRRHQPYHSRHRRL
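Enzyme 1.5 nM, Z-FR-AMC 2 uM, NaOAc 100 mM pH 5.5, DTT 5 mM, Triton X-100 0.01%; 15 min RT compound preincubation; kinetic ex360/em450, 60 s delta.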
Lassa entry inh – inhibitors of Lassa virus binding or cell entry. Lassa virus pseudotype entry inhibition, cell reporter; control for the full effect not named in the record. Potency, µM (titrated, usually from 37.9 µM), inactives show at the top dose activity change, negative = inhibition, actives largely listed as inhibitors. 300,000 tested, 1.2% active. AID 540256; active means well fitted inhibition curve with a large enough effect; inconclusive means small, poorly fitted or top-dose-only effect, or effect the other way; inactive means flat fitted curve, though single readings scatter; tested in HEK293 cells; note: % is set by controls: 0 for no effect and ±100 for the full control effect; nearly all actives have a fitted effect of over 50% in size; luciferase read-out
StopGo reporter – FMDV 2A StopGo reporter, luciferase signal. human cells with a luciferase reporter of 2A StopGo recoding; control for the full effect not named in the record. Potency, µM (top dose mostly 57.9 µM), inactives show top-dose signal change, negative = less light. 410,000 tested, 1.2% active. AID 1159524; active = well fitted falling curve with a large enough effect; inconclusive = small, poorly fitted or top-dose-only effect; inactive = no such curve, though single readings can be large or run the other way; tested in HEK293T cells; note: % is set by controls: 0 for no effect and ±100 for the full control effect; nearly all actives have a fitted effect of over 45% in size; luciferase light after 4 h
Cruzain noTriton – inhibitors of Trypanosoma cruzi cruzain without detergent. P25779. purified cruzain, Z-FR-AMC fluorescence, no detergent. Potency, µM, for the others: max response, negative = inhibition, usual class: inhibitors. 200,000 tested, 2.3% active; active = well fitted curve in the direction sought with a large enough effect; inconclusive = small, poorly fitted or top-dose-only effect, or another doubt; inactive = no such curve, though single readings can be large; an effect the other way counts as inactive or inconclusive;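 note: plate controls were enzyme without inhibitor for no effect and buffer without enzyme for full effect; nearly all actives have a fitted effect of over 40% in size; top concentration of the series not given in the record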
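Detergent-free condition (0.00005% Triton X-100) in acetate buffer pH 5.5 with DTT. 1.5 nM enzyme and compound were pre-mixed 15 min, then 2 uM Z-FR-AMC substrate added; reaction progress from fluorescence change between first and third reads (60 s).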
SARS PLpro yeast – inhibitors of SARS-CoV papain-like protease in yeast; 330,000 tested, 0.19% active; S. cerevisiae expressing SARS-CoV PLpro, growth rescue; control for the full effect not named in the record; Potency, µM (top dose mostly 32.9 µM), for inactives: at the highest dose activity, positive = growth rescue; note: 0% is about no effect; nearly all actives have a fitted effect of over 55% in size; growth read by luminescence after 48 h
NS1 inh – inhibitors of influenza NS1 protein function | 270,000 tested, 0.4% active | Potency, µM (series often up to 46.1 µM), inactives show at the highest dose activity, positive = more growth | S. cerevisiae slowed by influenza A NS1, growth recovery by OD600; note: actives are rising curves; nearly all actives have a fitted effect of over 50% in size
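In this qHTS, NS1 from influenza A is expressed in budding yeast, where it slows growth. Cells are switched from glucose to 2% galactose medium (pH 6.0, -URA), treated with compound, and growth recovery is read at OD600.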
The depositor's hits bear a star; ? = inconclusive; . = no result given; & = joins results of further samples; [ ] = dose if it differs, or a comment. Unless noted, calls come from the whole dose curve; as a rule, active means well fitted rising curve with a large enough effect; inconclusive means small, poorly fitted or top-dose-only effect; inactive means no such curve, though single readings can be large or run the other way. Potency is the fitted concentration of half-maximal effect. Rows are unselected; any-hit rate near 4.5%.

SMILES | RE007 growth inh | Marburg entry inh | Cruzain Triton | Lassa entry inh | StopGo reporter | Cruzain noTriton | SARS PLpro yeast | NS1 inh
CN1CC(=O)N(CC(=O)Nc2cccc(S(=O)(=O)N3CCOCC3)c2)C1=O | 2% | 9%[46.1 µM] | . | 1% | -5% | . | 1% | .
CN(C)c1ccc(Nc2ncnc3sc4c(c23)CCCC4)cc1 | . | . | 7.1% | -13%[46.1 µM] | ? | 20% | . | .
COc1ccc2[nH]c(C(=O)N3CCC(n4nccc4NC(=O)C4CC4)CC3)c(C)c2c1 | -3% | . | . | . | -11% | . | -2% | -5%
O=C(O)C1CCCN1S(=O)(=O)c1ccc2ccccc2c1 (centres undefined) | 19% | 6% | 0.9% | 3% | 18% | 3% | -24% | 8%
CCOc1ccc(NC(=O)c2ccc(Cn3nc(C)cc3C)o2)cc1 | -9% | . | . | . | 3% | . | -2% | 0%
CN(C)c1ccnc(-n2cccc2/C=N/OCc2ccc(F)cc2Cl)c1C#N | 20% | ? | -6.5% | -28% | ? | -10% | -14% | 1%
COc1ccccc1/C=N/NC(=O)c1cc2c(OC)c(OC)ccc2[nH]1 | 4% | . | . | . | 4% | . | -1% | 0%
COC(=O)c1sc2cccc(F)c2c1S(=O)(=O)NCc1ccc(F)cc1 | . | . | -3.5% | 5%[46.1 µM] | 53%[activator] | -15% | . | .
COc1cc(OC)c(NC(=O)c2sc3ncn(CC(=O)N4CCN(c5ccccn5)CC4)c(=O)c3c2C)cc1Cl | -8% | . | . | . | 0% | . | 0% | 2%
COc1ccc(NC(=O)Cn2cc(C(=O)c3ccc(C)c(C)c3)c(=O)c3cc(OC)ccc32)cc1 | . | 16%[46.1 µM] | -3.1% | 25%[46.1 µM] | 6% | -4% | . | .
COC(=O)c1ccc(N2CCN(S(=O)(=O)c3ccc(C)cc3)CC2)c([N+](=O)[O-])c1 | 11% | -14% | 1.3% | ? | -19% | -5% | -9% | 7%
Cc1ccccc1C(=O)NCC(=O)OC(C)C(=O)Nc1cccc(S(=O)(=O)N2CCOCC2)c1 (centres undefined) | -2% | ? | . | -1%[46.1 µM] | 10% | . | . | .
COc1cc(/C=N/NC(=O)COc2ccccc2C)ccc1OC(=O)c1cccs1 | 3% | 13% | 0.3% | -11% | 0% | -13% | 7% | 11%
COc1cc(-n2c(=O)c3ccccc3n(Cc3cccc(Cl)c3)c2=O)cc(OC)c1OC | . | 13%[46.1 µM] | -1.3% | -2%[46.1 µM] | -21% | 2% | . | .
COC(=O)/C=C1\SC(=NC(=O)c2cccc([N+](=O)[O-])c2)NC1=O | 10% | 3%[46.1 µM] | . | -1%[46.1 µM] | 14µM* | . | 2% | 19%
Clc1cccc(/C=N/Nc2ncnc3ccccc23)c1 | -3% | ? | -13% | ? | -22% | -3% | -11% | -111%
Cc1cccc(NC(=S)NCc2ccco2)n1 | -3% | -17%[46.1 µM] | . | 22% | -7% | . | 8% | .
C#CCn1c(S(=O)(=O)Cc2ccccc2Cl)nc(-c2ccccc2)c1-c1ccccc1 | 2% | -7% | -1.9% | . | -17% | ? | -1% | -2%
COc1ccc(C(C(=O)NC2CCCCC2)N(Cc2ccco2)C(=O)c2ccccn2)c(OC)c1 (centres undefined) | -15% | 23%[46.1 µM] | . | . | 3% | . | 1% | 20%
Cc1onc(-c2ccccc2)c1C(=O)N1CCN(CCc2ccccc2)CC1 | -9% | -15% | -4.1% | -26% | -11% | 1% | 4% | -6%
CCCCOC(=O)NC1CCS(=O)(=O)C1 (centres undefined) | 3% | 27% | -1.4% | 21% | 16% | 5% | 2% | 2%
CC(C)C(NC(=O)C1CCCCC1)C(=O)Nc1ccccn1 (centres undefined) | -8% | -5% | 0.9% | 6% | -5% | -8% | 1% | 0%
O=C(NCCCN1CCN(c2ccc(F)cc2)CC1)c1ccc2nc(Cc3ccccc3)oc2c1 | . | . | -0.7% | -16%[46.1 µM] | 11µM* | -6% | . | .
C/C(CC1CC(COCC(C)C)OC1=O)=N\NC(N)=S (centres undefined) | -4% | -4% | -20% | 4% | -8% | ? | 6% | 19%
COc1ccccc1NC(=O)c1cc(-c2ccc(OC)c(OC)c2)nc2ccccc12 | -13% | 4%[46.1 µM] | . | 2%[46.1 µM] | -17% | . | 3% | 1%
SMILES | RE007 growth inh | Marburg entry inh | Cruzain Triton | Lassa entry inh | StopGo reporter | Cruzain noTriton | SARS PLpro yeast | NS1 inh
CCCN(CCC)S(=O)(=O)c1cccc(C(=O)Nc2ccc3c(c2)OCO3)c1 | -23% | . | -7.6% | . | -15% | -3% | 1% | -48%
COc1cc(-c2[nH]ncc2CN2CCN(Cc3cccs3)CC2)cc(OC)c1OC | ? | . | . | -12% | -18% | . | 0% | -1%
CCN(CCCNC(=O)COc1cc(=O)n(C)c2ccccc12)c1cccc(C)c1 | -16% | -18% | 4.4% | 13% | ? | 13% | 3% | -18%
Cc1ccc(S(=O)(=O)N2CCC(=O)N(CCOC(=O)NCc3ccccc3)CC2)cc1 | 1% | -1% | -2.9% | 8% | 22% | 0% | 6% | 1%
Cc1cccc(COc2ccc(/C=C3/C(=O)N(C)C(=S)N3C)cc2)c1 | -14% | -2%[46.1 µM] | . | 5%[46.1 µM] | 4% | . | -8% | 27%
COc1cccc(CNC(=O)c2[nH]c3cc(C)ccc3c2Sc2ccccc2)c1 | . | -23%[46.1 µM] | -7.1% | -8%[46.1 µM] | 6% | 3% | . | .
Cc1ccc(C(=O)OCc2nnc(-c3ccccc3)o2)cc1S(=O)(=O)N1CCOCC1 | 7% | 27% | . | 18% | -17% | . | -11% | .
Cc1ccc2nc(SC(C)C(=O)NCc3ccco3)[nH]c2c1 (centres undefined) | 3% | -6% | -4.2% | -1% | -2% | -28% | -1% | 10%
CCCOc1ccc(C(=O)Nc2ccc(CN3CCOCC3)cc2)cc1 | -13% | ? | . | -3% | ? | . | -2% | 17%
COCc1cc(C)n(CC(=O)Nc2ccccc2C(=O)OC)c(=O)c1C#N | 13% | -9% | -1.3% | -3% | -23% | 0% | 5% | -14%
O=c1[nH]ncn1-c1ccccc1C(F)(F)F | 7% | 2% | 0.2% | 4% | 11% | -3% | -2% | 4%
O=S(=O)(NCCO)c1cccc2cccnc12 | -1% | . | 3.0% | . | -5% | -2% | -3% | -2%
COc1ccc(NC(=O)CSc2cc(C(=O)c3nccn3C)c3ccccc3n2)cc1 | 4% | ? | . | ? | -2% | . | -1% | -8%
CC(=O)Nc1ccc(NS(=O)(=O)c2ccc3ccccc3c2)cc1 | -1% | 1% | -3.4% | ? | 27% | -5% | -6% | 5%
Cc1cccc(C2=NN(c3ccccc3)[C@@H](C(=O)N3CCOC3=O)[C@@H]2C)c1 | -9% | . | -0.2% | . | -17% | 1% | 6% | .
COc1ccc(F)c(CN2CCC(N3CCC(C(=O)N4CCOCC4)CC3)CC2)c1 | 7% | -22% | . | -3% | -12% | . | 0% | 3%
CC(=O)c1ccc(C(=O)N2CCC(n3nccc3NC(=O)C3CC3)CC2)cc1 | 1% | 18% | . | 6% | -13% | . | 2% | 7%
CCn1c(SCC(=O)N/N=C/C=C/c2ccco2)nc2ccccc21 | 1% | -21% | -12% | -9% | -20% | -14% | -2% | 25%
CCOC(=O)C1CCCN(c2nnnn2-c2ccccc2)C1 (centres undefined) | 5% | 15% | -0.5% | -19% | 1% | 0% | 0% | -3%
O=C(NNS(=O)(=O)c1ccc(F)cc1)C1CCCCC1 | -9% | 23%[46.1 µM] | . | 21%[46.1 µM] | 7% | . | -2% | -6%
Cc1ccnc(NS(=O)(=O)c2ccc(NC(=O)c3ccccc3F)cc2)n1 | 2% | . | . | . | 3% | . | 2% | 18%
CCN(CC)S(=O)(=O)c1cccc(NC(=O)/C=C/c2cccc([N+](=O)[O-])c2)c1 | 5% | ? | -8.4% | ? | 18µM* | -5% | 20µM* | -1%
Cc1ccc(-c2c(C(=O)N/N=C/c3ccsc3)nnn2-c2nonc2N)cc1 | 9% | . | . | . | -6% | . | 16% | 10%
CC(C(=O)OCC(=O)Nc1ncc(Cl)cc1Cl)N1C(=O)c2ccccc2C1=O (centres undefined) | 22% | 3% | -2.7% | 0% | -14% | -16% | 25% | -10%
O=C(CSc1nc(Nc2ccc(F)cc2)c2ccccc2n1)c1ccc(F)cc1 | . | . | -5.2% | -31%[46.1 µM] | -23% | -26% | . | .
SMILES | RE007 growth inh | Marburg entry inh | Cruzain Triton | Lassa entry inh | StopGo reporter | Cruzain noTriton | SARS PLpro yeast | NS1 inh
CC1CCN(S(=O)(=O)c2ccc(C(=O)N(C)C3CCS(=O)(=O)C3)cc2)CC1 (centres undefined) | -13% | -7% | . | 3% | -11% | . | -1% | .
Cc1[nH]c2ccccc2c1/C=N/NC(=O)c1cccc([N+](=O)[O-])c1 | -23%&-9% | 8%&8%[46.1 µM] | . | 1% | -11% | . | 1% | .
Nc1ccc(S(=O)(=O)NCC(=O)OCCOc2ccccc2)cc1[N+](=O)[O-] | -7% | 6%[46.1 µM] | . | -1% | 16% | . | 1% | .
C=CCOc1ccc(/C(O)=C2/C(=O)C(=O)N(CCCn3ccnc3)C2c2cccs2)cc1 (centres undefined) | 11% | 12% | 1.7% | 8% | 45%[activator] | 19% | -2% | -9%
Cc1ccc(NC(=O)c2ccc(C)c(NC3=NC4CS(=O)(=O)CC4S3)c2)cc1C (centres undefined) | -5% | . | . | . | -17% | . | -2% | -7%
Cc1cc(C)c(S(=O)(=O)NCC(CCC(=O)O)C(F)(F)F)c(C)c1 (centres undefined) | 21% | -4% | . | 11% | -3% | . | 3% | .
COc1ccc(C(=O)NC(C)c2nccs2)cc1OC1CCN(C(C)C)CC1 (centres undefined) | 2% | . | . | . | 1% | . | -1% | 6%
CN(CCC#N)C(=O)COC(=O)[C@H](Cc1ccccc1)N1C(=O)c2ccccc2C1=O | 8% | . | . | . | -15% | . | -1% | -4%
O=C(Cn1c(=O)oc2ccccc21)NCc1ccc(Cl)cc1 | . | . | 0.3% | -4%[46.1 µM] | 2% | 11% | . | .
Cc1cn2c(=O)cc(COC(=O)c3ccc(NC(=O)COc4ccc(C)c(C)c4)cc3)nc2s1 | . | . | -0.3% | 5%[46.1 µM] | -1% | 1% | . | .
